MARV entry inh = qHTS for inhibitors of binding or entry into cells for Marburg Virus. AID 540276, 2011. Potency, µM (highest dose often 37.8 µM), for inactives: top-dose activity change, negative = inhibition, usual class: inhibitors. Marburg virus pseudotyped entry inhibition, cell reporter; control for the full effect not named in the record; about a third of the inactives were read at about 46 µM. 300,000 tested, 1.8% active; active = well fitted inhibition curve with a large enough effect; inconclusive = small, poorly fitted or top-dose-only effect, or effect the other way; inactive = flat fitted curve, though single readings scatter; tested in HEK293 cells; about a fifth of its hits are not listed in these tables; further: on the % scale 0 is the no-effect control and ±100 the full control effect; luciferase read-out
RE007 growth inh = qHTS Assay for Inhibitors of the HIV-1 protein Vpr; S. pombe RE007 Vpr strain, BacTiter-Glo ATP luminescence, 24 h; control for the full effect not named in the record; Potency, µM (titrated, usually from 92.2 µM), without a hit: at the highest dose activity change, negative = less growth; 360,000 tested, 0.21% active; AID 651644, 2012; active = well fitted falling curve with a large enough effect; inconclusive = small, poorly fitted or top-dose-only effect; inactive = no such curve, though single readings can be large or run the other way;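 further: on the % scale 0 is the no-effect control and ±100 the full control effect; nearly all actives have a fitted effect of over 50% in size; the assay follows cell death caused by Vpr and the record does not say whether a fall means rescue or toxicity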
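Fission yeast strain RE007, carrying one chromosomally integrated HIV-1 vpr copy, was seeded at OD 0.01 in PMG+AL medium with 23 nL pinned compound. After 24 h at 30 °C and 99% humidity, viability was read by BacTiter-Glo luminescence.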
Cruzain inh noDet = qHTS Assay for Promiscuous and Specific Inhibitors of Cruzain (without detergent); 200,000 tested, 2.3% active; purified cruzain, Z-FR-AMC fluorescence, no detergent; Potency, µM, inactives show max response, negative = inhibition, hits mostly inhibitors; active means well fitted curve in the direction sought with a large enough effect; inconclusive means small, poorly fitted or top-dose-only effect, or another doubt; inactive means no such curve, though single readings can be large; an effect the other way counts as inactive or inconclusive;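 further: plate controls were enzyme without inhibitor for no effect and buffer without enzyme for full effect; nearly all actives have a fitted effect of over 40% in size; top concentration of the series not given in the record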
Target sequence (P25779 123-467 limits assumed): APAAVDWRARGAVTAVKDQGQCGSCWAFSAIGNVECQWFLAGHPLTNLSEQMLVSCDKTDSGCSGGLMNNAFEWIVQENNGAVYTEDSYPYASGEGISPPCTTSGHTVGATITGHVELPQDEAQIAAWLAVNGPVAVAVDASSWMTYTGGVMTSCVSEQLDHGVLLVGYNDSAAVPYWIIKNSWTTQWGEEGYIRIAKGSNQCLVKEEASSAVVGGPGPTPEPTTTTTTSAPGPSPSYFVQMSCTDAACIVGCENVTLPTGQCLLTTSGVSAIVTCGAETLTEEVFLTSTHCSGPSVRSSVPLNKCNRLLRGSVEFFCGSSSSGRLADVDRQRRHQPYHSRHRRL
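Purified cruzain at 1.5 nM, pre-incubated 15 min with compound at room temperature in 100 mM sodium acetate pH 5.5, 5 mM DTT, 0.00005% Triton X-100. Reaction started with 2 uM Z-FR-AMC; AMC fluorescence increase over 60 s gives rate.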
LASV entry inh = qHTS for Inhibitors of binding or entry into cells for Lassa Virus; 300,000 tested, 1.2% active; Lassa virus pseudotype entry inhibition, cell reporter; control for the full effect not named in the record; Potency, µM (titrated, usually from 37.9 µM), for the others: at the top dose activity change, negative = inhibition, actives largely listed as inhibitors; active means well fitted inhibition curve with a large enough effect; inconclusive means small, poorly fitted or top-dose-only effect, or effect the other way; inactive means flat fitted curve, though single readings scatter; tested in HEK293 cells; further: on the % scale 0 is the no-effect control and ±100 the full control effect; nearly all actives have a fitted effect of over 50% in size; luciferase read-out
SARS PLP yeast = qHTS of Yeast-based Assay for SARS-CoV PLP; AID 485353, 2010; Potency, µM (top dose mostly 32.9 µM), for the others: at the highest dose activity, positive = growth rescue; 330,000 tested, 0.19% active; S. cerevisiae expressing SARS-CoV PLpro, growth rescue; control for the full effect not named in the record; further: 0% is about no effect; nearly all actives have a fitted effect of over 55% in size; growth read by luminescence after 48 h
StopGo reporter = High Throughput Screening for Foot and Mouth Disease Virus Antivirals. 410,000 tested, 1.2% active. human cells with a luciferase reporter of 2A StopGo recoding; control for the full effect not named in the record. Potency, µM (doses to about 57.9 µM), inactives show at the top dose signal change, negative = less light. AID 1159524, 2015; active = well fitted falling curve with a large enough effect; inconclusive = small, poorly fitted or top-dose-only effect; inactive = no such curve, though single readings can be large or run the other way; tested in HEK293T cells; further: on the % scale 0 is the no-effect control and ±100 the full control effect; nearly all actives have a fitted effect of over 45% in size; luciferase light after 4 h
Cruzain inh Det = qHTS Assay for Promiscuous and Specific Inhibitors of Cruzain (with detergent). AID 1478, 2009. Potency, µM, inactives show max response, negative = inhibition, usual class: inhibitors. Cruzipain (Trypanosoma cruzi), P25779. purified cruzain, Z-FR-AMC fluorescence, 0.01% Triton. 200,000 tested, 0.43% active; active means well fitted curve in the direction sought with a large enough effect; inconclusive means small, poorly fitted or top-dose-only effect, or another doubt; inactive means no such curve, though single readings can be large; an effect the other way counts as inactive or inconclusive;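 further: plate controls were neutral wells for no effect and buffer without enzyme for full effect; nearly all actives have a fitted effect of over 40% in size; top concentration of the series not given in the record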
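Cruzain (1.5 nM) preincubated 15 min at RT with compound in 100 mM sodium acetate pH 5.5, 5 mM DTT, 0.01% Triton X-100. Reaction started with 2 uM Z-FR-AMC; AMC fluorescence (ex 360/em 450 nm) change over 60 s gave rate.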
NS1 inh = qHTS Assay for Inhibitors of Influenza NS1 Protein Function; 270,000 tested, 0.4% active; AID 2326, 2010; Potency, µM (top dose mostly 46.1 µM), inactives show at the top dose activity, positive = more growth; S. cerevisiae slowed by influenza A NS1, growth recovery by OD600; further: actives are rising curves; nearly all actives have a fitted effect of over 50% in size
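A cell-based growth assay was used: compounds that relieve NS1-induced slow growth of budding yeast raise OD600. Assay medium was yeast nitrogen base with ammonium sulphate and -URA supplement, pH 6.0, with 2% galactose.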
An asterisk follows results filed as active; ? = inconclusive; nt = no result given; [ ] = another dose, or the depositor's remark. Unless noted, the call rests on the fitted dose curve; in most records, active means well fitted rising curve with a large enough effect; inconclusive means small, poorly fitted or top-dose-only effect; inactive means no such curve, though single readings can be large or run the other way. Potency means the concentration at half of the fitted maximal effect.

cpd	molecule	RE007 growth inh	LASV entry inh	SARS PLP yeast	StopGo reporter	Cruzain inh Det	NS1 inh	Cruzain inh noDet	MARV entry inh
1	O=C(c1ccco1)N1CCN(S(=O)(=O)c2ccc(Br)cc2)CC1	5%	nt	-2%	-5%	nt	-4%	nt	nt
2	NC(CO)C(O)c1ccc([N+](=O)[O-])cc1 (stereo not drawn)	5%	nt	-8%	-9%	nt	3%	nt	nt
3	Cc1ccc(OCCOC(=O)CN2C(=O)NC3(CCCC3)C2=O)cc1	26%	-5%	nt	-24%	nt	nt	nt	-20%
4	CCCCc1cc2c(s1)CCCC/C2=N/O	-10%	-1%	-50%	0%	-7.3%	-62%	7%	-11%
5	NC(=O)CSc1nc2cccnc2n1-c1ccc(F)cc1	10%	8%	?	-23%	nt	?	nt	5%
6	O=C(Cn1cnc2nc3c(cc2c1=O)CCCC3)Nc1ccc(F)cc1Cl	nt	20%[46.1 µM]	nt	-10%	-2.3%	nt	-11%	nt
7	COc1cccc(CNC(=O)C(C(=O)NCc2cccc(OC)c2)c2ncc(C(F)(F)F)cc2Cl)c1	11%	?	2%	-19%	nt	nt	nt	?
8	Cc1cccc(N2CCN(C(=O)N3CCCCC3)CC2)c1C	10%	?	-18%	-1%	nt	nt	nt	?
9	CCN(CC)C(=O)C(C)N(C#N)c1nc(Cl)nc(N(C)C)n1 (stereo not drawn)	-11%	-10%[46.1 µM]	0%	-12%	nt	6%	nt	-11%[46.1 µM]
10	CCOC(=O)c1c(C)[nH]c(C(=O)OCc2c(C)noc2C)c1C	-1%	-2%	-13%	?	-2.7%	-72%	29%	?
11	CCNC(=S)/N=C(/Nc1ccc(OC)cc1)Nc1nc(C)cc(C)n1	-6%	?	1%	0%	nt	-3%	nt	18%
12	CCN(C(=O)N(CC)c1ccccc1)c1ccccc1	-3%	nt	4%	-3%	-5.1%	nt	3%	nt
13	CC(C)(C)NC(=O)CSc1nc(-c2ccccc2)cc(=O)[nH]1	12%	12%[46.1 µM]	-2%	-11%	nt	-1%	nt	1%[46.1 µM]
14	CCOC(=O)c1ccc(CC(=O)c2ccc(O)cc2O)o1	1%	-19%	-1%	-6%	-2.0%	-1%	-3%	-8%
15	O=C(NC1CCCCC1)N(C1=NCCCCC1)c1ccc(Br)cc1	?	?	-10%	16%	-6.5%	-4%	6%	17%
16	CC(CCc1ccco1)N(C)S(=O)(=O)c1csc(C(N)=O)c1 (stereo not drawn)	-15%	3%[46.1 µM]	0%	-7%	nt	-4%	nt	-3%[46.1 µM]
17	CC1CCC(NC(=O)c2nn(C)c3c2CS(=O)(=O)c2ccccc2-3)CC1 (stereo not drawn)	10%	nt	-3%	-7%	nt	-20%	nt	nt
18	CC(O)C(O)C(O)C(O)/C=N/NC(=O)c1ccccc1 (stereo not drawn)	8%	24%	9%	15%	1.7%	2%	-3%	3%[46.1 µM]
19	COc1ccc(NC(=S)NCCCN2CCCC2)cc1Cl	-13%	4%	0%	-13%	nt	0%	nt	-1%[46.1 µM]
20	O=C(CNC(=O)Cc1ccc(Cl)cc1)NCC(=O)N1CCCCC1	-2%	nt	0%	-6%	nt	2%	nt	nt
21	CS(=O)(=O)N(Cc1ccc(Cl)cc1)c1ccc(C(=O)NCCSc2ccccn2)cc1	5%	?	24%	?	-3.2%	-2%	?	?
22	O=C(NC1CC(=O)N(c2ccccc2)C1)C(=O)c1c[nH]c2ccccc12 (stereo not drawn)	-3%	8%	-1%	-19%	nt	nt	nt	14%
23	C=CCOc1ccc(/C=N/N2C(=O)C(CC(=O)Nc3ccc(F)cc3F)SC2=NC)cc1 (stereo not drawn)	7%	?	?	-22%	-6.9%	?	-11%	?
24	COc1ccc(C2CC(C(F)(F)F)n3nc(C(=O)O)cc3N2)cc1 (stereo not drawn)	3%	nt	0%	-13%	nt	-1%	nt	nt
25	COc1ccc(Cl)cc1NC(=O)c1sc2nc(C)nc(N3CCOCC3)c2c1C	1%	nt	13%	-5%	nt	3%	nt	nt

Part of the list above with just StopGo reporter, LASV entry inh and Cruzain inh Det:
no. | mol | StopGo reporter | LASV entry inh | Cruzain inh Det
6 | O=C(Cn1cnc2nc3c(cc2c1=O)CCCC3)Nc1ccc(F)cc1Cl | -10% | 20%[46.1 µM] | -2.3%
7 | COc1cccc(CNC(=O)C(C(=O)NCc2cccc(OC)c2)c2ncc(C(F)(F)F)cc2Cl)c1 | -19% | ? | nt
8 | Cc1cccc(N2CCN(C(=O)N3CCCCC3)CC2)c1C | -1% | ? | nt

Additional records.
cpd	molecule	RE007 growth inh	LASV entry inh	SARS PLP yeast	StopGo reporter	Cruzain inh Det	NS1 inh	Cruzain inh noDet	MARV entry inh
26	CCOc1ccc(C(=O)NCC(=O)OCc2ccc(F)cc2Cl)cc1	8%	nt	-13%	-3%	-8.3%	-15%	-5%	nt
27	Cc1cccc(-c2noc(CCCC(=O)Nc3ccc(C(N)=O)cc3)n2)c1	-11%	0%	3%	0%	-1.9%	13%	-4%	-16%
28	CCN1/C(=C/C(C)=C/c2sc3ccccc3[n+]2CC)Sc2ccccc21	7.1µM*	1.1µM*	-19%	10µM*	nt	10%	nt	1.6µM*
29	CCOC(=O)c1[nH]c2ccc(Br)cc2c1NC(=O)CCN1CCOCC1	-14%	nt	-1%	-11%	nt	-3%	nt	nt
30	Cc1ccccc1S(=O)Cc1ccc(C(=O)NC2CCN(Cc3ccccc3)CC2)o1 (stereo not drawn)	7%	nt	-2%	-13%	nt	-1%	nt	nt
31	CCC(=O)Nc1ccc2c(c1)nc(CCN1CCC(C)CC1)n2C	3%	nt	1%	-22%	nt	-1%	nt	nt
32	CCN(c1ccccc1)S(=O)(=O)c1cc(CN2C(=O)c3cccnc3C2=O)ccc1OC	-6%	nt	?	-13%	nt	-14%	nt	nt
33	Cc1c(C(=O)c2ccccc2C(=O)O)sc2ccccc12	4%	4%	0%	-6%	nt	1%	nt	3%[46.1 µM]
34	CC1C(=O)Nc2ccccc2N1C(=O)C1CC1 (stereo not drawn)	16%	-5%	-6%	0%	-1.1%	13%	-15%	14%
35	CSc1ccc(OCC(=O)Nc2ccc(N3CCOCC3)c(Cl)c2)cc1	9%	3%	0%	?	nt	-11%	nt	-7%
36	COC(=O)c1cc(Cl)c(NC(=O)/C=C/c2ccc(OC)cc2)cc1OC	-4%	-19%	-4%	0%	-15%	14%	-17%	?
37	COc1ccc(OC)c(CCNC(=O)c2sc3nc4n(c(=O)c3c2C)CCCC4)c1	nt	2%[46.1 µM]	nt	-3%	-4.2%	nt	29%	nt
38	O=C(CC(=O)N/N=C/c1ccccc1O)NCc1cccnc1	-1%	?	23%	14%	-3.9%	4%	7%	?
39	c1cncc(Oc2cccc(Oc3cccnc3)c2)c1	-1%	-8%	4%	-18%	-1.7%	4%	-3%	-1%[46.1 µM]
40	FC(F)(F)c1cccc(Cc2noc(CN3CCC(c4ccncc4)CC3)n2)c1	-11%	?	10%	-4%	nt	-3%	nt	?
41	O=C(/C=C/N1CCOCC1)c1cc2ccccc2o1	-11%	-27%	-12%	-18%	-4.7%	-49%	-5%	?
42	CNC(=S)NCCCc1ccccc1	6%	nt	0%	-10%	nt	0%	nt	nt
43	Cc1ccc(C(=O)N/C(=C/c2ccc(-c3cccc([N+](=O)[O-])c3)o2)C(=O)NC(C)(C)C)cc1	-5%	?	0%	-12%	-8.7%	12%	-8%	?
44	O=C(Nc1cccc(C(F)(F)F)c1)Oc1ccccc1N1CCOCC1	-5%	-2%[46.1 µM]	-1%	-3%	nt	0%	nt	-2%[46.1 µM]
45	CSc1ncc(Cl)c(C(=O)Nc2ccc(S(=O)(=O)N3CCCC(C)C3)cc2)n1 (stereo not drawn)	nt	6%[46.1 µM]	nt	-5%	-5.9%	nt	-30%	-21%[46.1 µM]
46	O=C(/C=C/c1ccc2c(c1)OCO2)Nc1c(C(=O)O)[nH]c2ccccc12	-15%	-28%	-2%	5%	?	20%	?	?
47	CCc1nc(NCCO)c(C#N)c2c1CCCC2	3%	nt	0%	-3%	nt	-7%	nt	nt
48	CCOC(=O)CNc1nc(-c2ccncc2)nc2ccccc12	-1%	24%	-10%	-24%	-1.7%	-94%	0%	11µM*
49	CCn1cc(C(=O)O)c(=O)c2cc(F)c(N3CCN(C(=S)NC(=O)c4c(OC)cccc4OC)CC3)cc21	3%	4%	1%	-14%	nt	?	nt	-3%
50	COc1cccc(-n2c(C)c(C(C)=O)c(C(C)=O)c2C)c1	-5%	-1%	-2%	14%	-0.6%	-2%	-2%	-8%
51	CSc1ccc(S(=O)(=O)NCC(=O)OCC(=O)N(Cc2ccccc2)C(C)C)cc1[N+](=O)[O-]	-2%	7%	8%	-29%	nt	nt	nt	1%[46.1 µM]
52	Cc1cc(C(F)F)n2ncc(C(=O)O)c2n1	6%	0%	1%	nt	1.0%	-3%	-9%	2%
53	Cc1ccc(/C(N)=N/OC(=O)c2ccco2)cc1	-28%	?	-84%	-54%	-0.6%	-35%	-13%	?
54	O=C(Oc1ccc2c3c(c(=O)oc2c1)CCC3)c1ccco1	-4%	4%	-9%	nt	3.6%	-81%	0%	4%

High-throughput results (PubChem BioAssay)
